Assay outcomes from PubChem BioAssay.
ATXN2 expr inh: ATXN2 expression inhibition. Potency, µM (highest dose often 57 µM), for inactives: top-dose activity change, negative = inhibition, hits mostly inhibitors. hit rate 0.72% among 360,000. HEK-293 ATXN2-luciferase reporter, luminescence, 24 h; also: potency is read from the fitted curve at half-maximal effect; % is scaled to controls: 0 for no effect and ±100 for the full control effect; nearly all actives have a fitted effect of over 55% in size
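qHTS (up to 57 uM final) was run with 24 h compound exposure of reporter cells at 37 °C. Each well was multiplexed: SteadyGlo luminescence measured ATXN2-luciferase expression after a fluorogenic Gly-Phe-AFC viability readout (25 uM final).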
KB-3-1 tox: KB-3-1 parental cell cytotoxicity; KB-3-1 viability, CellTiter-Glo ATP luminescence, 72 h; Potency, µM (titrated, usually from 46.1 µM), without a hit: at the top dose activity change, negative = cytotoxic, hits mostly cytotoxic; hit rate 1.4% among 400,000; AID 1347075; also: potency is read from the fitted curve at half-maximal effect; % is scaled to controls: 0 for no effect and ±100 for the full control effect; nearly all actives have a fitted effect of over 60% in size
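Screening of KB-3-1 cells (DMEM, 10% FBS, phenol-red free) ran from lowest to highest compound concentration; after 72 h at 37 °C viability was read luminescently and curves fitted.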
SW480 rereplic: inducers of DNA re-replication in SW480 colon cancer cells; Potency, µM (doses to about 46.1 µM), inactives show top-dose re-replication activation, actives largely listed as activators; SW480 DNA re-replication, Hoechst DNA content imaging, 48 h; hit rate 1.8% among 340,000; also: potency is read from the fitted curve at half-maximal effect; % of control where 0% means no effect; nearly all actives have a fitted effect of over 55% in size
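DNA re-replication was detected as more nuclei of elevated Hoechst intensity after 48 hr exposure to compound (23 nL pinned per well of 250 cells).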
S2 tox: viability counter-screen for ATXN expression inhibitors; AID 651635; S2 cells (HEK-293 line with an ATXN2-luciferase reporter) viability, CellTiter-Fluor protease fluorescence, 24 h; hit rate 0.49% among 400,000; Potency, µM (highest dose often 56.7 µM), most hits filed as cytotoxic; also: potency is read from the fitted curve at half-maximal effect; nearly all actives have a fitted effect of over 40% in size
KB-V1 MDR tox: kills drug-selected multidrug resistant KB-V1 cells; KB-V1 MDR cells viability, CellTiter-Glo, 72 h; Potency, µM (top dose mostly 46.1 µM), inactives show at the highest dose activity change, negative = cytotoxicity, hits mostly cytotoxic; hit rate 3.4% among 400,000; AID 1347076; also: potency is read from the fitted curve at half-maximal effect; % is scaled to controls: 0 for no effect and ±100 for the full control effect; nearly all actives have a fitted effect of over 60% in size
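Cells of the MDR subline KB-V1 are plated, dosed with compound at multiple concentrations, and incubated 72 h at 37 degrees C; CellTiter-Glo is then added and luminescence read after 10 min.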
IL-1B inflam inh: blocks inflammasome-driven IL-1 beta release. hit rate 4.7% among 360,000. THP-1 LPS/ATP IL-1B secretion, AlphaLISA, 16 h; stronger effect = lower value. activity change, % at 57.5 µM; in the data active = activity change below about -50%; inconclusive = mostly about -30% to -49%; also: % is scaled to controls: 0 for no effect and ±100 for the full control effect
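THP-1 cells pretreated 1 hr with compounds (up to 57.5 uM final), then stimulated with LPS (250 ng/mL final) plus ATP (1.25 mM final); secreted IL-1B measured by AlphaLISA after 16 hr, decreased signal indicating inhibition.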
MCF10A rereplic: inducers of DNA re-replication in MCF 10A breast cells; MCF 10A DNA re-replication, Hoechst nuclear intensity, 48 h; Potency, µM (series often up to 46.1 µM), without a hit: at the highest dose activity, positive = re-replication, hits mostly activators; hit rate 2.9% among 350,000; AID 624296; also: potency is read from the fitted curve at half-maximal effect; % of control where 0% means no effect; nearly all actives have a fitted effect of over 50% in size
Numbers without * were called inactive; i = inactive; u = inconclusive; & = joins results of further samples; [ ] = remark or other dose. Unless noted, calls follow the shape of the dose curve; as a rule, active = well fitted curve in the direction sought with a large enough effect; inconclusive = small, poorly fitted or top-dose-only effect, or another doubt; inactive = no such curve, though single readings can be large; an effect the other way counts as inactive or inconclusive. Not all compounds are listed, so the mix of outcomes need not match the whole.

1: CC(=O)Nc1cccc(OCc2cnc(Cl)s2)c1
2: Nn1cnc2cc3ccccc3cc2c1=O
3: O=C(O)CCCCC1CCSS1 (configuration not stated)
4: Cc1cc(C(C)(C)C)c(O)c(C(C)(C)C)c1
5: CC(=O)O[C@]1(C(C)=O)CC[C@H]2[C@@H]3C=C(C)C4=CC(=O)CC[C@]4(C)[C@H]3CC[C@@]21C
6: c1ccc2occc2c1
7: CCCCCCCC(=O)O
8: C1N2CN3CN1CN(C2)C3

| compound no. | 1 | 2 | 3 | 4 | 5 | 6 | 7 | 8 |
| --- | --- | --- | --- | --- | --- | --- | --- | --- |
| ATXN2 expr inh | -12% | 22% | -8%&0% | 7%&0% | 4%&-8% | 7% | -5% | -2%&6% |
| KB-3-1 tox | 8% | -2% | 0% | 0% | 0% | 14% | 0% | 0% |
| SW480 rereplic | 13% | -2% | -68%[inhibitor] | -61%[inhibitor] | -10%&-50% | -13% | 0%&-5% | -90%[inhibitor] |
| S2 tox | u | i | i | i | i | i | i | i |
| KB-V1 MDR tox | u | -8% | -3% | 11% | u | 23% | 14% | 17% |
| IL-1B inflam inh | 5 | 18 | 22 | 23 | -10 | -1 | 13 | -14 |
| MCF10A rereplic | 0.15µM* | 9% | 7% | -8% | 5%&-25% | 4% | u | -9% |

Entries by screen from the entries so far:
Compounds 1–8 in MCF10A rereplic: 0.15µM*, 9%, 7%, -8%, 5%&-25%, 4%, u, -9%
Compounds 1–8 in IL-1B inflam inh: 5, 18, 22, 23, -10, -1, 13, -14
Compounds 1–8 in S2 tox: u, i, i, i, i, i, i, i

Sorted by molar mass (highest first): some entries from above.
5: CC(=O)O[C@]1(C(C)=O)CC[C@H]2[C@@H]3C=C(C)C4=CC(=O)CC[C@]4(C)[C@H]3CC[C@@]21C
2: Nn1cnc2cc3ccccc3cc2c1=O
3: O=C(O)CCCCC1CCSS1 (configuration not stated)

| compound no. | 5 | 2 | 3 |
| --- | --- | --- | --- |
| ATXN2 expr inh | 4%&-8% | 22% | -8%&0% |
| KB-3-1 tox | 0% | -2% | 0% |
| SW480 rereplic | -10%&-50% | -2% | -68%[inhibitor] |
| S2 tox | i | i | i |
| KB-V1 MDR tox | u | -8% | -3% |
| IL-1B inflam inh | -10 | 18 | 22 |
| MCF10A rereplic | 5%&-25% | 9% | 7% |

Next part.
9: COc1ccccc1C(=O)Nc1cccc2c1CCCC2
10: CCCCOC(=O)/C=C\C(=O)OCCCC
11: C=C1c2c(Cl)ccc(O)c2C(O)=C2C(=O)[C@]3(O)C(O)=C(C(N)=O)C(=O)[C@@H](N(C)C)[C@@H]3[C@@H](O)C12 (some centres not stated)
12: Cc1c(N)cccc1Cl
13: Cc1cc(C)c2c(N)c(C(=O)NC3CC3)sc2n1
14: Cc1nccn1Cc1ccccc1
15: CNC[C@H](O)c1cccc(O)c1
16: O=C(c1ccccc1)C(O)c1ccccc1 (configuration not stated)

| compound no. | 9 | 10 | 11 | 12 | 13 | 14 | 15 | 16 |
| --- | --- | --- | --- | --- | --- | --- | --- | --- |
| ATXN2 expr inh | 0% | -3% | -11% | 2% | 6% | 9% | -30%&8%&12% | 0%&-7% |
| KB-3-1 tox | 0% | 0% | -1% | 0% | 2% | 0% | -13% | 0% |
| SW480 rereplic | -6% | 2% | u | -7% | -3% | -13% | 5%&-1% | 8%&-4% |
| S2 tox | i | i | i | i | i | i | i | i |
| KB-V1 MDR tox | -3% | -8% | 0% | 4% | -1% | 3% | 1% | 16% |
| IL-1B inflam inh | -7 | -2 | 12 | 2 | -13 | -17 | -11 | -20 |
| MCF10A rereplic | -12% | 11% | u | 0% | -1% | -10% | u | u |

In a second layout: results already given
Sequence of screens: ATXN2 expr inh	KB-3-1 tox	SW480 rereplic	S2 tox	KB-V1 MDR tox	IL-1B inflam inh	MCF10A rereplic
13) Cc1cc(C)c2c(N)c(C(=O)NC3CC3)sc2n1
  6%	2%	-3%	i	-1%	-13	-1%
14) Cc1nccn1Cc1ccccc1
  9%	0%	-13%	i	3%	-17	-10%
15) CNC[C@H](O)c1cccc(O)c1
  -30%&8%&12%	-13%	5%&-1%	i	1%	-11	u
16) O=C(c1ccccc1)C(O)c1ccccc1 (configuration not stated)
  0%&-7%	0%	8%&-4%	i	16%	-20	u

Entries of single compounds, quoted from the list. Values in the order: ATXN2 expr inh	KB-3-1 tox	SW480 rereplic	S2 tox	KB-V1 MDR tox	IL-1B inflam inh	MCF10A rereplic
C1N2CN3CN1CN(C2)C3 is listed as -2%&6%	0%	-90%[inhibitor]	i	17%	-14	-9%
O=C(c1ccccc1)C(O)c1ccccc1 (configuration not stated) is listed as 0%&-7%	0%	8%&-4%	i	16%	-20	u
CC(=O)Nc1cccc(OCc2cnc(Cl)s2)c1 is listed as -12%	8%	13%	u	u	5	0.15µM*

New compounds follow:
17: Cc1nc2ccc(Cl)cc2[nH]1
18: CCN(CC)CC#CCOC(=O)C(O)(c1ccccc1)C1CCCCC1 (configuration not stated)
19: O=Cc1ccc(C(=O)O)cc1
20: C=CCOC(=O)c1ccccc1C(=O)OCC=C
21: CCCCCCCCCCCCCC(=O)O
22: Nc1ccc(S(=O)(=O)Nc2cnc3ccccc3n2)cc1
23: CCC1(c2ccccc2)C(=O)NCNC1=O
24: O=c1ccc2ccccc2o1
25: CC1(C)SC2C(NC(=O)C3(N)CCCCC3)C(=O)N2C1C(=O)O (configuration not stated)

| compound no. | 17 | 18 | 19 | 20 | 21 | 22 | 23 | 24 | 25 |
| --- | --- | --- | --- | --- | --- | --- | --- | --- | --- |
| ATXN2 expr inh | -5% | -21%&-10% | -10% | 8% | -3% | 9%&38%&13% | 1%&11%&-17% | 4%&7% | -2% |
| KB-3-1 tox | u | u | 0% | 0% | 0% | 0%&0% | 0% | 0% | 1% |
| SW480 rereplic | -6% | 25%&19% | 1% | -30% | u | -51%&-10%&-26%[inhibitor] | 5% | 8%&6%&2% | 3% |
| S2 tox | i | u | i | i | i | i | i | i | i |
| KB-V1 MDR tox | 11% | u | 13% | 28% | 7% | 12%&-15% | 11% | 11% | 4% |
| IL-1B inflam inh | 8 | -23 | 3 | 4 | 31 | 10&7 | 5 | 22 | 4 |
| MCF10A rereplic | 9% | u | -3% | -9% | 3% | -5%&-7%&8% | 0% | -9%&3%&11% | 0% |
